Bioassay records as filed in PubChem.
NOMO-1 viab: STK33 inhibitor candidate reducing NOMO-1 cell viability | 37,000 compounds, 7.5% hits | inhibition, % (test concentration not listed) | AID 2330 | NOMO-1 AML viability, CellTiter-Glo luminescence, 72 h;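 active = most replicates above 80%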;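 also: wells of about 30 µL received 25 nL stock; 0% = median of vehicle wells and 100% = reference inhibitor level; the first replicate is given; inactives centre near 10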
* = called active by the depositor. An excerpt, so the mix of outcomes need not match the whole.

smiles	NOMO-1 viab
C[C@@H]1CN([C@H](C)CO)C(=O)c2cc(NC(=O)Nc3ccccc3)ccc2O[C@H]1CN(C)Cc1ccc(-c2ccccc2)cc1	116*
COC(=O)c1ccc(NC(=O)C2CCN(S(=O)(=O)c3cc(C)ccc3OC)CC2)cc1	19
CSc1nnc(-c2ccc(S(=O)(=O)n3nc(C)cc3C)s2)n1C	30
CCNc1nc(NCC)nc(OCCOC(C)=O)n1	10
C[C@@H]1CCCCO[C@@H](CN(C)Cc2ccc(C(=O)Nc3ccccc3N)cc2)[C@@H](C)CN([C@H](C)CO)C(=O)c2cc(NS(=O)(=O)c3cccs3)ccc2O1	139*
COc1ccc(C)cc1N(CC(=O)Nc1ccc(I)cc1C)S(C)(=O)=O	10
O=C(COc1ccc(Br)cc1)Nc1cc(C(F)(F)F)ccc1N1CCOCC1	8
CN(CC(=O)Nc1ccccc1C(=O)N1CCCC1)S(=O)(=O)c1ccc(Cl)cc1	-12
C[C@@H]1CN([C@@H](C)CO)C(=O)c2cc(NC(=O)Nc3ccc(F)cc3)ccc2O[C@H]1CN(C)Cc1ccc2c(c1)OCO2	36
O=C(CSc1nc2cc(Cl)ccc2s1)Nc1ccc2c(c1)OCCO2	-11
COc1ccc(N2CCc3c(C)c(C#N)c4nc5ccccc5n4c32)cc1	114*
CC(C)NC(=O)Nc1ccc2c(c1)C(=O)N([C@H](C)CO)C[C@H](C)[C@H](CN(C)C(=O)NC1CCCCC1)O2	-10
Cc1ccc(C(=O)NC(=O)CSc2nnc(C)s2)cc1	-18
Cc1cccc(NC(=O)CC2Nc3cccc4cccc(c34)NC2=O)c1 (centres undefined)	24
CC(C)NC(=O)N(C)C[C@H]1Oc2c(NC(=O)C3CC3)cccc2C(=O)N([C@H](C)CO)C[C@@H]1C	16
COc1ccc(NC(=O)Nc2cccc3c2O[C@H](CN(C)Cc2ccc(C(=O)O)cc2)[C@@H](C)CN([C@H](C)CO)C3=O)cc1	18
C[C@H](CO)N1C[C@H](C)[C@H](CN(C)S(=O)(=O)c2cccs2)Oc2c(NC(=O)c3nc4ccccc4s3)cccc2C1=O	56
COc1cc2c(cc1NC(=O)COc1ccc([N+](=O)[O-])cc1)oc1ccccc12	6
C[C@@H]1CCCCO[C@@H](CN(C)C(=O)c2ccccc2)[C@@H](C)CN([C@H](C)CO)C(=O)c2cc(NS(=O)(=O)c3cccs3)ccc2O1	30
COc1ccc(NC(=O)c2ccc(N(C)S(=O)(=O)c3ccc(OC)c(OC)c3)cc2)cc1OC	3
CC(C)c1ccc(NC(=O)Cn2cc([N+](=O)[O-])cn2)cc1	26
CC(C)NC(=O)Nc1ccc2c(c1)CC(=O)N([C@@H](C)CO)C[C@H](C)[C@@H](CN(C)Cc1ccc(-c3ccccc3)cc1)O2	18
CC(C)(O)C#Cc1ccccc1C(=O)NC(CC(=O)O)c1ccccc1 (centres undefined)	29
O=C(CC1NCCNC1=O)Nc1cccc([N+](=O)[O-])c1 (centres undefined)	16
C[C@@H]1CN([C@@H](C)CO)C(=O)Cc2cc(NC(=O)c3ccncc3)ccc2O[C@@H]1CN(C)Cc1ccc2c(c1)OCO2	-12
COc1ccc(N(CC(=O)Nc2ccc(C(F)(F)F)cc2)S(C)(=O)=O)cc1Cl	33
C[C@H](CO)N1C[C@H](C)[C@@H](CN(C)Cc2ccc(Cl)c(Cl)c2)Oc2ccc(NC(=O)C3CCCCC3)cc2C1=O	32
C[C@@H]1CN([C@H](C)CO)C(=O)c2cc(NC(=O)CCC(F)(F)F)ccc2O[C@H]1CN(C)S(C)(=O)=O	-10
Cc1ccc(S(=O)(=O)N(C)C[C@@H]2Oc3c(NS(=O)(=O)c4ccccc4)cccc3C(=O)N([C@H](C)CO)C[C@H]2C)cc1	-3
COc1ccc(S(=O)(=O)N(C)CC(=O)O)cc1	3
CS(=O)(=O)N(CC(=O)Nc1cccc(C(F)(F)F)c1)Cc1ccccc1	30
COc1ccc(N(Cc2cc3cccc(C)c3[nH]c2=O)S(C)(=O)=O)cc1	23
C[C@H]1CN([C@@H](C)CO)C(=O)Cc2cc(NS(=O)(=O)c3ccc(Cl)cc3)ccc2O[C@H]1CN(C)S(C)(=O)=O	17
C[C@@H]1CN([C@@H](C)CO)C(=O)c2cccc(NC(=O)c3nc4ccccc4s3)c2O[C@H]1CN(C)Cc1ccncc1	56
Cc1noc(C)c1S(=O)(=O)Nc1ccc2c(c1)C(=O)N([C@H](C)CO)C[C@H](C)[C@@H](CN(C)S(=O)(=O)c1ccc(Cl)cc1)OCCCC[C@@H](C)O2	44
COc1ccc(NC(=O)COc2ccccc2Cl)c([N+](=O)[O-])c1	4
O=C(NC1CCN(C(=O)c2c(Cl)cccc2Cl)CC1)C1CCCCC1	13
CC(=O)Nc1ccc(C(=O)CSc2nc(-c3ccccc3)cs2)cc1	-28
C[C@@H]1CN([C@H](C)CO)C(=O)Cc2cc(NS(=O)(=O)c3ccc(Cl)cc3)ccc2O[C@H]1CN(C)C	1
COc1ccc(CN(C)C[C@H]2Oc3c(NS(=O)(=O)c4ccc(C)cc4)cccc3C(=O)N([C@H](C)CO)C[C@@H]2C)cc1	8
Cc1noc(C)c1NC(=O)Nc1ccc2c(c1)C(=O)N([C@@H](C)CO)C[C@@H](C)[C@@H](CN(C)Cc1ccc(C(=O)O)cc1)O2	10
COc1ccc(S(=O)(=O)Nc2cccc3c2O[C@H](CN(C)Cc2ccc(C(=O)Nc4ccccc4N)cc2)[C@@H](C)CN([C@@H](C)CO)C3=O)cc1	129*
CCOC(=O)c1c(NC(=O)CSc2nc3ccccc3o2)sc(C)c1C	5
C[C@H](CO)N1C[C@H](C)[C@H](CN(C)Cc2ccncc2)Oc2ccc(NC(=O)CCCN(C)C)cc2C1=O	14
C[C@H](CO)N1C[C@H](C)[C@H](CN(C)Cc2ccc(C(=O)Nc3ccccc3N)cc2)Oc2ccc(NC(=O)Nc3ccc4c(c3)OCO4)cc2CC1=O	127*
COc1ccccc1NC(=O)C1CC(=O)n2c(nc3ccccc32)N1 (centres undefined)	3
C[C@H]1CN([C@@H](C)CO)C(=O)c2cccc(NS(=O)(=O)c3cn(C)cn3)c2O[C@H]1CN(C)Cc1ccc(C(F)(F)F)cc1	1
C[C@H]1CN([C@@H](C)CO)C(=O)c2cccc(NC(=O)Nc3cccc4ccccc34)c2O[C@H]1CN(C)C	11
O=S(=O)(Nc1cccc(C(F)(F)F)c1)c1ccccc1	22
C[C@H](CO)N1C[C@H](C)[C@H](CN(C)S(=O)(=O)c2ccc(F)cc2)Oc2ccc(NS(=O)(=O)c3ccc(Cl)cc3)cc2C1=O	34
Cc1ccc(NC(=O)CCN2C(=O)c3ccccc3C2=O)cc1[N+](=O)[O-]	-14
C[C@H]1CN([C@@H](C)CO)C(=O)c2cccc(NC(=O)C3CCCCC3)c2O[C@H]1CN(C)C(=O)Nc1ccccc1	9
C[C@H](CO)N1C[C@H](C)[C@@H](CN(C)Cc2ccc(-c3ccccc3)cc2)Oc2ccc(NS(=O)(=O)c3ccc(F)cc3)cc2C1=O	22
O=C(O)CSc1nnc(-c2ccc(Cl)cc2Cl)n1-c1ccccc1	-7
Cc1noc(C)c1NC(=O)Nc1ccc2c(c1)CC(=O)N([C@H](C)CO)C[C@@H](C)[C@@H](CN(C)C(=O)Nc1ccc(F)cc1)O2	-8
C[C@@H]1CN([C@@H](C)CO)C(=O)c2cc(NS(=O)(=O)c3ccccc3)ccc2O[C@@H]1CN(C)C(=O)Nc1ccccc1	-9
C[C@H](CO)N1C[C@H](C)[C@@H](CN(C)S(=O)(=O)c2cn(C)cn2)Oc2ccc(NS(=O)(=O)c3ccccc3)cc2C1=O	8
C[C@H](CO)N1C[C@H](C)[C@@H](CN(C)Cc2ccc(C(F)(F)F)cc2)Oc2c(NC(=O)c3ccc(-c4nccs4)cc3)cccc2C1=O	115*
C/C=C/c1ccc(OCCSc2nc(C)cc(=O)[nH]2)c(OC)c1	10
C[C@H](CO)N1C[C@H](C)[C@H](CN(C)C(=O)Nc2ccc(F)cc2)Oc2c(NC(=O)c3ccc(-c4nccs4)cc3)cccc2C1=O	1

Continuation.
smiles	NOMO-1 viab
COc1cccc(N(CC(=O)Nc2ccc(C(F)(F)F)cc2)S(C)(=O)=O)c1	25
Cc1ccc(S(=O)(=O)Nc2ccc3c(c2)C(=O)N([C@@H](C)CO)C[C@@H](C)[C@H](CN(C)Cc2ccc(Cl)c(Cl)c2)O3)cc1	89*
Cc1nnc(SCC(=O)NC2CC2)n1-c1ccccc1	1
CCOC(=O)c1ccc(NC(=O)Cn2cc([N+](=O)[O-])cn2)cc1	-2
Cc1ccc(S(=O)(=O)N(C)C[C@@H]2Oc3ccc(NS(=O)(=O)c4cccs4)cc3C(=O)N([C@H](C)CO)C[C@H]2C)cc1	-2
C[C@H]1CN([C@@H](C)CO)C(=O)c2cccc(NC(=O)C3CCCCC3)c2O[C@@H]1CN(C)C(=O)Nc1ccc2c(c1)OCO2	9
C[C@@H]1CN([C@H](C)CO)C(=O)Cc2cc(NC(=O)Nc3ccc(C(F)(F)F)cc3)ccc2O[C@@H]1CN(C)S(=O)(=O)c1cn(C)cn1	3
Cc1noc(C)c1NC(=O)Nc1cccc2c1O[C@@H](CN(C)CC1CCCCC1)[C@@H](C)CN([C@@H](C)CO)C2=O	-4
CCn1c(SCC(=O)Nc2ccccc2C(F)(F)F)nnc1-c1ccc(N)cc1	24
O=C(O)COc1ccc2occ(C(=O)c3ccccc3)c2c1	-8
C/C=C/C1=CC(=O)[C@H](O)[C@H]1O	44
C[C@@H]1CN([C@@H](C)CO)C(=O)c2cccc(NC(=O)c3cnccn3)c2O[C@@H]1CN(C)Cc1ccccc1	21
C/S(=N/C(=O)Nc1ccc(Cl)cc1)c1ccc(OC(=O)c2ccc(Cl)cc2)cc1 (centres undefined)	57
CC(C)NC(=O)Nc1ccc2c(c1)C(=O)N([C@@H](C)CO)C[C@H](C)[C@H](CN(C)C(=O)Nc1ccc3c(c1)OCO3)O2	-2
Cc1cccc(-n2c(SCC(=O)c3ccccc3)nnc2-c2cccs2)c1C	25
C[C@@H]1CN([C@@H](C)CO)C(=O)c2cccc(NC(=O)c3nc4ccccc4s3)c2O[C@@H]1CN(C)Cc1ccc(C(=O)Nc2ccccc2N)cc1	127*
Cc1cccc(Nc2ncnc(N)c2[N+](=O)[O-])n1	1
O=C(c1ccccc1)c1cc(Br)ccc1NC(=O)C1CC=CCC1C(=O)O (centres undefined)	13
CCOC(=O)C1CCCN(Cc2nc(N)nc(Nc3ccccc3)n2)C1 (centres undefined)	113*
CC(C)NC(=O)Nc1ccc2c(c1)C(=O)N([C@H](C)CO)C[C@H](C)[C@@H](CN(C)C(=O)NC(C)C)O2	-13

Molecules listed so far with a thiophene ring, fused or not, in the order listed:
smiles	NOMO-1 viab
CSc1nnc(-c2ccc(S(=O)(=O)n3nc(C)cc3C)s2)n1C	30
C[C@@H]1CCCCO[C@@H](CN(C)Cc2ccc(C(=O)Nc3ccccc3N)cc2)[C@@H](C)CN([C@H](C)CO)C(=O)c2cc(NS(=O)(=O)c3cccs3)ccc2O1	139*
C[C@H](CO)N1C[C@H](C)[C@H](CN(C)S(=O)(=O)c2cccs2)Oc2c(NC(=O)c3nc4ccccc4s3)cccc2C1=O	56
C[C@@H]1CCCCO[C@@H](CN(C)C(=O)c2ccccc2)[C@@H](C)CN([C@H](C)CO)C(=O)c2cc(NS(=O)(=O)c3cccs3)ccc2O1	30
CCOC(=O)c1c(NC(=O)CSc2nc3ccccc3o2)sc(C)c1C	5
Cc1ccc(S(=O)(=O)N(C)C[C@@H]2Oc3ccc(NS(=O)(=O)c4cccs4)cc3C(=O)N([C@H](C)CO)C[C@H]2C)cc1	-2
Cc1cccc(-n2c(SCC(=O)c3ccccc3)nnc2-c2cccs2)c1C	25

Fetched by structure from the list above (two):
smiles	NOMO-1 viab
CC(C)NC(=O)Nc1ccc2c(c1)C(=O)N([C@@H](C)CO)C[C@H](C)[C@H](CN(C)C(=O)Nc1ccc3c(c1)OCO3)O2	-2
O=C(c1ccccc1)c1cc(Br)ccc1NC(=O)C1CC=CCC1C(=O)O (centres undefined)	13

The list continues.
smiles	NOMO-1 viab
Cc1noc(C)c1NC(=O)Nc1ccc2c(c1)CC(=O)N([C@@H](C)CO)C[C@H](C)[C@@H](CN(C)C(=O)NC(C)C)O2	0
Cc1cc(OCC(=O)Nc2cc(C(=O)O)cc(C(=O)O)c2)cc(C)c1Cl	1
CC(NS(=O)(=O)c1ccc(Cl)cc1)C(=O)Nc1ccccc1Sc1ccccc1 (centres undefined)	41
CC(C)c1ccc(NC(=O)CNS(=O)(=O)c2ccc(Br)cc2)cc1	34
CC(Oc1cccc(Cl)c1)C(=O)Nc1cc(C(=O)O)cc(C(=O)O)c1 (centres undefined)	18
CCc1c(C)nc(SCC(=O)Nc2ccc(C)cc2)[nH]c1=O	11
Cc1nc2nc(NCc3cccc([N+](=O)[O-])c3)[nH]n2c(=O)c1Cc1ccccc1	6
C[C@H](CO)N1C[C@H](C)[C@H](CN(C)S(=O)(=O)c2ccc(Cl)cc2)Oc2ccc(NS(=O)(=O)c3ccccc3)cc2CC1=O	4
COc1ccc(-c2nnc(SCC(N)=O)n2-c2ccccc2)cc1	-6
C[C@H](CO)N1C[C@H](C)[C@@H](CN(C)CC2CC2)Oc2c(NC(=O)C3CCOCC3)cccc2C1=O	25
C[C@H]1CN([C@@H](C)CO)C(=O)Cc2cc(NS(=O)(=O)c3ccc(Cl)cc3)ccc2O[C@@H]1CN(C)Cc1ccncc1	4
CN(C)C1CS(=O)(=O)CC1N(C)C (centres undefined)	10
Cc1ccc(S(=O)(=O)N2C(=O)CCC2C(=O)Nc2ccc3c(c2)OCCO3)cc1 (centres undefined)	19
